GLA inh pH 4.5: inhibitors of human alpha-galactosidase A at pH 4.5; purified enzyme, 4-MU-alpha-Gal fluorescence, pH 4.5; activity change, negative = inhibition, % at 105 µM; 230,000 tested, under 10 active; inconclusive = small, poorly fitted or top-dose-only inhibition, or a rising curve; inactive = flat fitted curve, though single readings scatter; no compound was filed as active;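 note: 0% = full activity with enzyme and -100% = basal without enzyme; dose as in the result columns while the protocol names 77 µM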
Rango-impB inh: prevents formation of the Rango-importin beta complex. Rango CFP/YFP FRET sensor + importin beta, 45 min. Potency, µM (doses to about 92.2 µM), for inactives: top-dose inhibition of complex formation. 340,000 compounds, 0.031% hits. AID 540263; active = rising FRET ratio curve, often small or poorly fitted; inconclusive = mostly compound fluorescence or quenching in the first reads; inactive = flat curves in all reads;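 note: potency is the fitted concentration of half-maximal effect; 0% = DMSO wells and 100% = buffer wells lacking importin beta; nearly all actives have a fitted effect of over 15% in size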
Target sequence (Q14974 whole entry, looked up): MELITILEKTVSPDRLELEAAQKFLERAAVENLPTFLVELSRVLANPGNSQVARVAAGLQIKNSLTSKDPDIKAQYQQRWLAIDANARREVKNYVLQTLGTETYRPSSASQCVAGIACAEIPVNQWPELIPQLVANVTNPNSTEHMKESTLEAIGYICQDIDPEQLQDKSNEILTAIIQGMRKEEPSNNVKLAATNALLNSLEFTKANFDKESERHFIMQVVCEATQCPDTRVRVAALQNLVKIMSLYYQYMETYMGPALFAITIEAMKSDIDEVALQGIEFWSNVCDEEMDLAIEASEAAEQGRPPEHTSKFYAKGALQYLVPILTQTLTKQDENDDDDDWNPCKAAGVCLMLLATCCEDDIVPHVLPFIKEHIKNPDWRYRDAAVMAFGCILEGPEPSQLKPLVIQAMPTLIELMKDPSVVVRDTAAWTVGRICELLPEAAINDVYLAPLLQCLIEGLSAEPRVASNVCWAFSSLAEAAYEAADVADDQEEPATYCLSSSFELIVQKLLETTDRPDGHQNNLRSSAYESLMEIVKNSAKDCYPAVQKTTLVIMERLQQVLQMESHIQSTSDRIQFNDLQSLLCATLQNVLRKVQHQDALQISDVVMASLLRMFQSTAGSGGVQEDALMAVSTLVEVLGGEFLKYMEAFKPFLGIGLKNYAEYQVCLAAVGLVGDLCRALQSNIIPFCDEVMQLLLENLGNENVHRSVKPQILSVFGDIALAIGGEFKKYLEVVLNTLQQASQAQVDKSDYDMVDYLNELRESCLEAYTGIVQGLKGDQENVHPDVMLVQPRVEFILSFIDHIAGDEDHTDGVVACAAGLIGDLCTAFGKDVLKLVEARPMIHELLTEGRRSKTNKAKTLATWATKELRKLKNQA
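Inhibition scored from the CFP 486 nm/YFP 530 nm FRET ratio 45 min after adding 0.125 microM importin beta to 50 nM Rango biosensor preincubated 5 min with compound (room temperature, PBS with DTT, Tween-20, BSA). No-importin wells as positive control.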
miR-21 FLuc: miR-21 reporter, rising signal; HeLa miR-21 FLuc reporter, luciferase, 48 h; Potency, µM (highest dose often 38.3 µM), for the others: at the highest dose reporter change, positive = more light; 340,000 tested, under 10 active; active = well fitted rising curve with a large enough effect; inconclusive = small, poorly fitted or top-dose-only effect; inactive = no such curve, though single readings can be large or run the other way;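 note: % of control where 0% means no effect; miR-21 action dims this reporter so a rising signal means less miR-21 action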
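Compounds were titrated across several concentrations (up to approximately 40 uM) and incubated 48 hours with HeLa miR-21-FLuc reporter cells (miR-21 target sequence downstream of FLuc, endogenous miR-21). Readout was firefly luciferase luminescence after lytic detection reagent.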
Rango dissoc inh: inhibition of RanGTP-driven Rango-importin beta dissociation | Biochemical FRET Rango-importin beta, RanGTP-induced dissociation | AID 540253 | Potency, µM (highest dose often 46.1 µM), for the others: at the highest dose activity change, negative = inhibition | 340,000 compounds, 0.071% hits; active means falling FRET ratio curve, often poorly fitted, with flat reads before Ran was added; inconclusive means other falling curves, or compound fluorescence or quenching; inactive means flat or rising ratio curve;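 note: potency is the fitted concentration of half-maximal effect; % of control where 0% means no effect; nearly all actives have a fitted effect of over 45% in size; -100% = wells without RanGTP and RCC1; the record marks most hits as doubtful in a second field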
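Rango (0.1 uM)–importin beta (0.25 uM) complex; RanGTP-RCC1 trigger; 45 min RT; CFP/YFP FRET read.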
Numbers without * were called inactive; ? = inconclusive; · = not tested or not shown.

SMILES	GLA inh pH 4.5	Rango-impB inh	miR-21 FLuc	Rango dissoc inh
O=S(=O)(NC1CCCCC1)c1ccc(S(=O)(=O)N2CCN3CCCC3C2)cc1 (stereo not drawn)	4	-1.2%	-5%	3%
COc1ccc(CN(C(=O)c2snc(C(N)=O)c2N)C(C(=O)NC2CCCC2)c2cc(OC)ccc2OC)cc1 (stereo not drawn)	·	-0.9%	2%	4%
Cc1nc(N)sc1C(=O)N/N=C/c1ccc([N+](=O)[O-])cc1	-10	1.0%	-7%	-1%
Cc1ccc(C(=O)N/C(=C/c2ccc(Cl)cc2)C(=O)N2CCOCC2)cc1	·	7.9%	2%	7%
Cc1ccc(-c2nc(NCc3ccco3)c3ccccc3n2)cc1	-5	-0.6%	-36%	34%
Cc1cc(NC(=O)C(C)SCC(=O)OCc2c(Cl)cccc2Cl)no1 (stereo not drawn)	·	-2.0%	0%	17%
COc1ccc(N2CCN(C(=O)COC(=O)c3ccc(C)o3)CC2)cc1	·	0.5%	·	-13%
C/C(=N\N=C(N)N)c1ccc(Cl)cc1Cl	13	0.0%	0%	-5%
CCN(CC)C(=O)CSc1nnc(-c2ccccc2)c(-c2ccccc2)n1	-11	-0.4%	7%	1%
CCN(CC)c1ccc(NC(=O)c2cccnc2)c(C)c1	-10	-1.4%	15%	10%
NC1=NC[C@H](Cc2ccc(O)cc2)N1CC1CCCCC1	3	-1.3%	-1%	39%
Cn1nnc(NC(=S)NC(=O)c2cc(Cl)ccc2Cl)n1	·	-1.3%	-3%	-13%
COc1ccc(-c2ccc(CCC(=O)O)n2NC(=O)c2ccc(O)cc2)cc1	9	0.4%	-2%	-7%
CC1CCN(C(=O)C2CCCN2S(=O)(=O)c2ccc(Cl)cc2)CC1 (stereo not drawn)	·	-0.7%	-1%	0%
O=C(NCc1ccc2c(c1)OCO2)c1nc(Cn2ccc([N+](=O)[O-])n2)no1	·	-0.3%	7%	6%

Reprinted at random: 2 records from the list, in no set order.
SMILES	GLA inh pH 4.5	Rango-impB inh	miR-21 FLuc	Rango dissoc inh
Cn1nnc(NC(=S)NC(=O)c2cc(Cl)ccc2Cl)n1	·	-1.3%	-3%	-13%
CC1CCN(C(=O)C2CCCN2S(=O)(=O)c2ccc(Cl)cc2)CC1 (stereo not drawn)	·	-0.7%	-1%	0%

Back to the main list; the 4 compounds before the break are reprinted first.
SMILES	GLA inh pH 4.5	Rango-impB inh	miR-21 FLuc	Rango dissoc inh
Cn1nnc(NC(=S)NC(=O)c2cc(Cl)ccc2Cl)n1	·	-1.3%	-3%	-13%
COc1ccc(-c2ccc(CCC(=O)O)n2NC(=O)c2ccc(O)cc2)cc1	9	0.4%	-2%	-7%
CC1CCN(C(=O)C2CCCN2S(=O)(=O)c2ccc(Cl)cc2)CC1 (stereo not drawn)	·	-0.7%	-1%	0%
O=C(NCc1ccc2c(c1)OCO2)c1nc(Cn2ccc([N+](=O)[O-])n2)no1	·	-0.3%	7%	6%
CCOC(=O)c1cnc2c(C#N)c(C)nn2c1C	-3	-0.5%	0%	8%
Cc1ccc2nc(C)cc(C(=O)OCC(=O)c3ccc(Cl)c([N+](=O)[O-])c3)c2c1	-3	1.5%	1%	3%
CC(C)(C)OC(=O)CNC(=O)c1[nH]cnc1C(=O)NCCCCCN	·	-0.4%	·	-1%
Cc1cccc(OCCC(=O)NCC(c2ccccc2)N(C)C)c1 (stereo not drawn)	0	0.4%	-9%	-5%
O=C(O)c1cc2cc(Cl)ccc2[nH]1	-1	?	·	-4%
COc1ccc(/C=C2\SC(=S)N(CCC(=O)Nc3cccc(C(=O)O)c3)C2=O)cc1OC	·	?	3%	-15%
Nc1nc(SCC(=O)NCc2ccco2)[nH]c(=O)c1-c1ccccc1	-4	?	-2%	-1%
Cc1nc(-c2cccc(NC(=O)C(C)Oc3ccccc3)c2)cs1 (stereo not drawn)	·	-1.7%	5%	-12%
CCS(=O)(=O)N1CCN(Cc2ccc([N+](=O)[O-])cc2)CC1	-2	5.5%	1%	5%
Cc1ccc(S(=O)(=O)N2CCOCC2)cc1C(=O)OCC(=O)NC1CC1	·	0.3%	·	12%
Cc1ccc(-n2ccc(=O)c(C(=O)O)n2)cc1	10	2.6%	2%	?
N#Cc1ccsc1NC(=O)C1CCN(C(=O)c2ccc(F)cc2)CC1	·	-2.0%	·	-17%
COc1ccc(C2(C(=O)NCCN3CCOCC3)CCOCC2)cc1	-16	5.2%	1%	-7%
CSC1=C(C#N)C(c2ccccc2C)C(C#N)=C(N)N1 (stereo not drawn)	-2	4.7%	-35%	-8%
COCCNC(=O)Cn1cnc2c1c(=O)n(C)c(=O)n2C	6	1.0%	-2%	-1%
CCC(O)CNc1nc(-n2nc(C)cc2C)nc2sc3c(c12)CC(C)(C)OC3 (stereo not drawn)	-5	-0.9%	-10%	-6%
CN(C)c1nc(F)c(F)c(S(=O)(=O)c2ccccc2)c1F	·	5.8%	-9%	-13%
C[C@H](NC(=O)[C@H]1N2C(=O)c3ccccc3C2SC1(C)C)C(=O)N1CCC[C@H]1C(=O)O (stereo partly drawn)	·	4.9%	-5%	20%
CC1Sc2ccc(S(=O)(=O)CCC(=O)N3CCN(c4ccccc4)CC3)cc2NC1=O (stereo not drawn)	·	5.9%	22%	12%
N#Cc1c(N)sc2c1CCN(CCc1ccccc1)C2	10	?	-3%	?
CC(=O)N/C(=C\c1ccccc1)C(=O)Nc1ccc(O)cc1	3	-0.7%	-4%	1%
CCc1cccc(NC(=O)CN(C)S(=O)(=O)c2cccc3nsnc23)c1	5	4.8%	-9%	9%
CC1=C(C(=O)OC2CCCCC2)C(c2ccc(C)o2)C2=C(CC(C)(C)CC2=O)N1 (stereo not drawn)	0	-1.6%	-3%	-17%
O=C(NC1CCCCC1)c1cc(Cl)nc2ccccc12	2	-6.8%	1%	0%
Cc1cc(S(=O)(=O)N2CCOCC2)ccc1OCC(=O)NCc1ccccn1	·	-1.2%	-5%	1%
O=C(NNC(=S)Nc1ccc(Cl)cc1Cl)C1CC1	3	4.2%	-27%	-17%
O=C(Nc1ccc2c(c1)OCCO2)C1CCN(C(=O)c2ccc(F)cc2)CC1	1	0.5%	-38%	-2%
COc1ccc(N2CCN(C(=O)c3nc4nc(C)cc(C)n4n3)CC2)cc1	2	-1.0%	-3%	8%
CCN(Cc1ccccc1)Cc1nnnn1Cc1ccccc1	-3	-1.9%	-8%	-2%
Cc1ccc(NC(=O)C(c2ccc(Cl)cc2)N2CCOCC2)cc1 (stereo not drawn)	2	?	-5%	1%

Complete entries, looked up by structure.
Listed for O=C(NNC(=S)Nc1ccc(Cl)cc1Cl)C1CC1 = GLA inh pH 4.5 = 3; Rango-impB inh = 4.2%; miR-21 FLuc = -27%; Rango dissoc inh = -17%
Listed for CC(=O)N/C(=C\c1ccccc1)C(=O)Nc1ccc(O)cc1 = GLA inh pH 4.5 = 3; Rango-impB inh = -0.7%; miR-21 FLuc = -4%; Rango dissoc inh = 1%
Listed for CCC(O)CNc1nc(-n2nc(C)cc2C)nc2sc3c(c12)CC(C)(C)OC3 (stereo not drawn) = GLA inh pH 4.5 = -5; Rango-impB inh = -0.9%; miR-21 FLuc = -10%; Rango dissoc inh = -6%

A portion from further up:
SMILES	GLA inh pH 4.5	Rango-impB inh	miR-21 FLuc	Rango dissoc inh
CCN(Cc1ccccc1)Cc1nnnn1Cc1ccccc1	-3	-1.9%	-8%	-2%
Cc1ccc(NC(=O)C(c2ccc(Cl)cc2)N2CCOCC2)cc1 (stereo not drawn)	2	?	-5%	1%

Other results.
SMILES	GLA inh pH 4.5	Rango-impB inh	miR-21 FLuc	Rango dissoc inh
CCN1CCN(CC(O)COCc2ccccc2)CC1 (stereo not drawn)	-13	-3.4%	-10%	-12%
O=C(O)C(Cc1ccccc1-c1ccccc1)C(=O)O	-2	2.5%	1%	-12%
Cc1ccc(CNC(=O)CS(=O)Cc2nc(-c3ccccc3Cl)oc2C)cc1 (stereo not drawn)	·	-0.1%	-6%	-19%
CN(C)c1cnn(-c2ccccc2)c(=O)c1Cl	1	-2.4%	-60%	-10%
COc1cc(OC)c(C(=O)OCC(=O)Nc2ccc(S(=O)(=O)N3CCOCC3)cc2)cc1OC	·	0.7%	·	-19%
Cc1nc(SCC(=O)N2CCN(C(=O)c3cccs3)CC2)c2c(C)c(C)sc2n1	·	-1.9%	·	13%

Only part of the results is shown. The share of hits here may be higher or lower than overall.
